# Screens from PubChem BioAssay.
# Vif TR-FRET: inhibitors of Vif binding to APOBEC3G peptide, primary screen, biochemical, TR-FRET, GST-Vif 1-94, biotin-A3G peptide, dose response retest (AID 1117319). one-dose inhibition, %; IC50 in µM for titrated hits. TR-FRET GST-Vif / biotin-A3G peptide binding; higher % means a stronger effect; test concentration not given here; strong numbers were not always called active. Virion infectivity factor (Human immunodeficiency virus type 1 group M subtype B (isolate …. 260,000 compounds, 0.57% hits;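 active means above the screen mean plus three standard deviations and confirmed in dose response; inconclusive means results disagree or hit not tested in dose response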;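 further: Vif residues 1-94 fused to GST binding biotinylated APOBEC3G peptide 110-148; 0% = full assay without inhibitor and 100% = GST in place of GST-Vif; retest series ran down from 100 µM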
# FGF22 binding: binders of human FGF22 protein, primary screen, FGF22 synaptogenesis inhibitor project, biophysical, thermal shift, single point; recombinant FGF22 thermal shift, SYPRO orange fluorescence; percent of sucrose octasulfate shift, DMSO zero; calls only at 9.99 µM; 340,000 compounds, 1.5% hits; AID 651658, 2012;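 active means melting point raised past a set limit in the mean and every replicate; inconclusive means no clear call; three in four hits are not shown here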
# Target sequence (Q9HCT0 whole entry, looked up): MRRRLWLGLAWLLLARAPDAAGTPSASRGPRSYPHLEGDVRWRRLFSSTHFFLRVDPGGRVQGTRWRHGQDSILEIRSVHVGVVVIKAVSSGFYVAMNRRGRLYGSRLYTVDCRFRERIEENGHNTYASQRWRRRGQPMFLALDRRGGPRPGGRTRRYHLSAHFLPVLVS
# UCH37 inh: inhibitors of human UCH37 deubiquitinase, primary screen, biochemical, Ub-AMC cleavage, fluorescence; Ubiquitin carboxyl-terminal hydrolase isozyme L5 (Homo sapiens), Q9Y5K5; purified proteasome/UCH37; inhibition, % (concentration not given with the values); 330,000 compounds, 0.33% hits; AID 588478, 2011;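 active means mean of two replicates above 20%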;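 further: 0% = compound-free wells with enzyme and 100% = wells lacking proteasome; stock transfer was 100 nL into about 20 µL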
# Target sequence (Q9Y5K5 whole entry, looked up): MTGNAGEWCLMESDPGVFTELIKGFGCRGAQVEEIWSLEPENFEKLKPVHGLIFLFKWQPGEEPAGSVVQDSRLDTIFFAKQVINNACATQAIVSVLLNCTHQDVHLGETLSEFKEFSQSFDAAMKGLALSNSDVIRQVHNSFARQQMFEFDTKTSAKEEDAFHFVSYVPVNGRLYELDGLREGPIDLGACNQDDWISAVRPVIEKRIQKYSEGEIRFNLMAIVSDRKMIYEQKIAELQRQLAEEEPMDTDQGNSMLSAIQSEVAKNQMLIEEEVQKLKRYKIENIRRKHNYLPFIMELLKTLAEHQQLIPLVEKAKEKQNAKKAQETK
#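 Signal – fluorescence, ex 355 nm, em 460 nm · System – Proteasome-bound UCH37 · Input – 0.15 nM proteasome as dispensed · Timing – 30 min preincubation with enzyme, 25 min cleavage at room temperature · Read-out basis – percent inhibition of cleavage signal versus uninhibited and no-proteasome wells · Medium – Tris-HCl pH 7.4 with ATP-MgCl2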
# MLL AF4-AF9 inh: inhibitors of AF4 peptide binding to AF9, primary screen, biochemical, AlphaScreen, biotin-AF4 peptide, FLAG-AF9, single point. 350,000 compounds, 0.47% hits. inhibition, % at 10 µM. Protein AF-9 (Homo sapiens), P42568;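 active means every replicate reaching a set inhibition limit, whatever the replicate mean, cut at about 25% in these data; inconclusive means mean inhibition reaches that limit but some replicates miss it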;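 further: 0% = plate neutral control median and 100% = total signal loss; the record names both 10 and 1 µM as test concentration; the first replicate is given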
# RanGTP-Imp inh: inhibitors of RanGTP-importin-beta interaction, primary screen, biochemical, FRET, CFP-Ran, YFP-importin-beta, homogeneous | inhibition, % (test concentration not listed) | cell-free CFP-Ran/YFP-importin-beta FRET ratio | 300,000 compounds, 1.1% hits | AID 2216, 2009 | Ran GTPase (GTP-bound) - importin-beta complex;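 active means most replicates above 15%; inconclusive means exactly half above 15%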;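 further: 0% = DMSO wells and 100% = Ran loaded with GDP instead of GTP; wells of about 40 µL received 100 nL stock; the first replicate is given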
# Ecoli growth: E. coli growth inhibition, primary screen, OD600; Escherichia coli growth, 23 h; stronger effect = lower value; OD600 absorbance (concentration not given with the values); 330,000 compounds, 0.21% hits;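 active means OD600 absorbance below the run mean of sample wells minus 3.6 SD, in any replicate, cut at about 0.56 in these data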;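 further: stock transfer was 300 nL into about 60 µL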
# HNF4A DNA FP: change in binding of human HNF4A to DNA, primary screen, biochemical, fluorescence polarization, FITC-DNA. 1 h. activity change, % at 10 µM. 360,000 compounds, 0.3% hits. AID 1224865, 2016; in the data active means activity change above about 30%, passing the limit was not always enough;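 further: controls were the assay level and a saturating level of protein; the project sought stronger binding though the title names inhibitors; some compounds called inactive have numbers as strong as hits; positive values seem to mean higher polarization but the record does not say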
# Target sequence (P41235 whole entry, looked up): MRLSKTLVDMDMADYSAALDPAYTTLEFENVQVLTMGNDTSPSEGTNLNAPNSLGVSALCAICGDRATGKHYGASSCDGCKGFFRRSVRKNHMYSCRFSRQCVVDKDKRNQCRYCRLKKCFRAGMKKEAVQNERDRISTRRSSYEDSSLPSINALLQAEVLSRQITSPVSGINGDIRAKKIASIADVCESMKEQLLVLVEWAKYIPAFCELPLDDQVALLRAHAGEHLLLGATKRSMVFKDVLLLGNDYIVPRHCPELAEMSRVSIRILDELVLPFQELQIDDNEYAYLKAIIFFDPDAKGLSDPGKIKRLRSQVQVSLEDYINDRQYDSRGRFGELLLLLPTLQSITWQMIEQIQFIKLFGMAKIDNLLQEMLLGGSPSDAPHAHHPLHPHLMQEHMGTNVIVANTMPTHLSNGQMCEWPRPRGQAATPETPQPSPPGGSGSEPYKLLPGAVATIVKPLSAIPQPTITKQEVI
# The depositor's hits bear a star; i = inactive; ? = inconclusive; · = not tested or not shown; + = active, no number; & = joins results of further samples. This is a subset (hit frequency here may not be typical).
SMILES,Vif TR-FRET,FGF22 binding,UCH37 inh,MLL AF4-AF9 inh,RanGTP-Imp inh,Ecoli growth,HNF4A DNA FP
Cn1c(CCNC(=O)c2cccs2)nnc1SCC(=O)N1CCN(c2ccccc2)CC1,1.9%&-10.8%,·,-1.3,·,1.7,0.762,-2.8
COc1cc(C)ccc1S(=O)(=O)NC(=O)C1(C)CCN1C(=O)c1ccc(C2CCCCC2)cc1 (stereo unspecified),·,i,·,-4.8,·,·,2.2
CCn1c(Cc2c(C)[nH]c3ccccc23)nnc1SCC(=O)NCc1ccccc1,6.4%,·,-0.6,·,3.3,0.67,1.2
CCOC(=O)c1sc2nc(C)[nH]c(=S)c2c1C,-107.2%,i,5.5,-0.8,-0.1,0.679,13.9
Cc1ccc(S(=O)(=O)CC(=O)Nc2c(C)n(C)n(-c3ccccc3)c2=O)cc1,14.2%,i,1.6,1.0,?,0.672,0.9
CCOC(=O)/C(C#N)=C1\CCCN1CC(N)=S,·,i,-0.7,-0.6,-0.9,0.66,-4.7
O=C(O)C1(S(=O)(=O)CCC(F)=C(F)F)CC1,4.2%,·,3.1,1.2,-3.3,0.668,9.0
COc1cc(/C=C/c2cc[n+](C)cc2)ccc1OCC(=O)Nc1ccccc1,5.8%,i,-40.4,7.5,-34.0,0.659,2.7
CC1CCCC(NC(=O)CN2C(=O)NC(Cc3c[nH]c4ccccc34)C2=O)C1C (stereo unspecified),·,i,5.4,0.2,·,0.677,1.8
O=C(Cn1cc([N+](=O)[O-])cn1)NCc1cc2ccccc2[nH]1,-3.2%,i,3.7,5.8,-1.5,0.645,-1.0
CC/C(=N\NC(=O)CSCc1ccccc1Br)c1ccc2c(c1)OCCO2,-2.6%,·,·,·,3.0,·,-0.6
CCOc1ccccc1C(=O)n1nc(C)cc1C,7.2%,·,-1.6,·,6.1,0.701,-3.5
COc1ccccc1C(=O)NNC(=O)c1ccc(NC(=O)c2ccccc2)cc1,·,+,-2.5,-3.2,-0.2,0.69,0.7
CC(=O)N1CCN(C2=NC(=O)/C(=C/c3ccc(OS(=O)(=O)c4ccccc4)cc3)S2)CC1,-2.4%,i,9.5,-1.3,4.8,0.687,0.5
Cc1cc(C)cc(CC(Cc2nc3ccccc3[nH]2)c2nc3ccccc3[nH]2)c1 (stereo unspecified),26.6%,·,-0.4,·,0.3,0.765,-3.9
CCOc1ccc(C(=O)NCC(c2ccco2)N2CCOCC2)cc1 (stereo unspecified),1.8%,i,2.9,-2.3,5.4,0.68,2.5
N#CCCN(C(=O)COC(=O)c1ccc2c(c1)OCCO2)c1ccccc1,-0.1%,i,-3.0,-1.6,·,0.723,3.1
CSc1ccccc1NC(=O)c1noc(C)c1[N+](=O)[O-],·,i,-0.3,-0.5,1.2,0.687,-1.6
CCN(CC(=O)Nc1ccc(NC(C)=O)cc1)CC(=O)Nc1cc(C)on1,-4.8%,i,-5.5,0.4,·,0.649,3.5
COc1ccc(-c2cc(C(F)(F)F)nc(N3CCCCCC3)n2)cc1,0.3%,·,-57.0,·,0.1,0.685,0.6
CCN(C(=O)c1ccco1)c1nnc(-c2cccnc2)s1,·,i,1.3,-1.5,?,0.685,-1.7
COc1cc(NC(=S)Nc2ccc(Br)cc2Cl)c(OC)cc1Cl,·,·,2.3,·,-1.0,0.612,-0.5
O=C(c1ccco1)N1C2C=CC(C2)C1(C(F)(F)F)C(F)(F)F (stereo unspecified),17.3%,·,0.0,·,0.1,0.722,-0.9
Cc1ccccc1-n1c(C)cc(/C=C2/C(=N)N3C(c4ccccc4)=CSC3=NC2=O)c1C,18.3%,i,-59.5,8.1,0.9,0.684,16.6
Cc1onc(-c2ccccc2)c1C(=O)N/N=C/c1cc2c(cc1Br)OCO2,17.7%,·,·,·,0.2,·,2.2

# New compounds follow:
SMILES,Vif TR-FRET,FGF22 binding,UCH37 inh,MLL AF4-AF9 inh,RanGTP-Imp inh,Ecoli growth,HNF4A DNA FP
O=C1C=C(c2ccccc2)C(=O)N1Nc1ccccc1,-2.9%,·,2.7,·,3.3,0.654,2.4
Nc1nc(SCC(=O)NCCN2CCOCC2)nc2sc3c(c12)CCC3,1.6%,i,0.9,-0.6,?,0.666,-2.3
Nn1c(SCc2csc(-c3ccccc3)n2)nnc1-c1cccs1,-28.1%,·,-3.8,·,2.0,0.695,3.4
COC(=O)C1C(=O)C2=C(CC1C)NC(C)=C(C(=O)OC1CCCCC1)C2c1ccc(N(C)C)cc1 (stereo unspecified),31.6%,·,-7.3,·,2.3,0.699,-0.9
Cc1cc(=O)[nH]c(SCC(=O)Nc2ncc(S(=O)(=O)c3ccc([N+](=O)[O-])cc3)s2)n1,11.5%,i,4.9,-1.3,0.3,0.648,-3.6
COc1ccc(C(CNC(=O)CCNS(=O)(=O)c2ccccc2)N2CCOCC2)cc1 (stereo unspecified),-1.3%,i,·,?,·,·,4.7
CC(Sc1nc(N)cc(N)n1)C(=O)NCC1CCCO1 (stereo unspecified),3.4%,i,2.9,-5.7,·,0.632,-0.2
CC(=O)OCC1CC(COC(C)=O)C(COC(C)=O)CC1COC(C)=O (stereo unspecified),4.4%,i,·,-1.6,·,·,-3.9
COc1cccc(-n2ccnc2SCC(=O)Nc2nccs2)c1,-0.1%,·,-0.1,·,2.7,0.69,1.3
CCN(CC)c1ncnc2c1ncn2[C@H]1CN(Cc2ccc(Cl)cc2)C[C@@H](CO)O1,·,i,·,0.2,·,·,0.4
O=C(CSc1nnc(-c2ccncc2)o1)NCc1ccccc1,2.4%,i,1.2,-0.8,1.6,0.706,0.1
Cc1ccc(C(=O)NCc2ccc3c(c2)OCO3)cc1,·,i,0.9,-1.8,-2.6,0.694,-2.1
CCOc1ccccc1N(C)S(=O)(=O)c1ccc2c(c1)N(C(C)=O)CCO2,·,i,2.5,-1.8,1.4,0.684,0.0
CC(=O)c1cccc(N(C(=O)c2ccccn2)C(C(=O)NC2CCCCC2)c2ccccc2)c1 (stereo unspecified),·,i,3.5,-0.2,0.5,0.659,-1.6
COc1cccc(CNC(=O)CNC(=O)c2cccs2)c1,3.8%,i,6.1,1.0,-2.2,0.74,-0.4
COC(=O)c1nnn(-c2nonc2N)c1CN1CCc2ccccc21,13.9%,·,1.9,·,2.7,0.726,-1.5
Cc1ccc(C(=O)Nc2ccccc2C(=O)NCc2cccnc2)cc1,·,i,-2.4,-7.7,2.5,0.656,0.9
CCOC(=O)c1cnc2cc(-c3ccc(C)cc3)nn2c1-c1ccccc1,0.0%,·,-1.7,·,-0.3,0.732,-3.9
O=C(N/N=C/c1cccc([N+](=O)[O-])c1)c1cc(-c2ccccc2)nc2ccccc12,·,i,·,-1.1,1.1,·,1.8
Cc1ccnc2nc(C(=O)OCC(=O)NCCc3ccc(Cl)cc3)nn12,3.0%,·,3.5,·,4.9,0.669,2.0
CCOc1ccc(NC(=O)c2cccc(NC3=NC4CS(=O)(=O)CC4S3)c2)cc1 (stereo unspecified),·,i,1.1,-3.8,6.7,0.803,1.3
CCOc1ccc(OCC(=O)NCCS(=O)(=O)N2CCN(c3ccc(F)cc3)CC2)cc1,·,i,2.9,-0.5,-1.1,0.707,-0.9
Cc1cc(OC(=O)c2ccccc2Br)c([N+](=O)[O-])c(=O)[nH]1,·,i,8.1,-0.2,1.5,0.699,-0.3
Cc1nnc(NC(=O)COc2ccc3c(C)cc(=O)oc3c2)s1,-63.9%,·,·,·,7.5,·,-1.4
Cc1onc(-c2ccccc2)c1C(=O)NCc1ccccn1,-2.8%,·,4.2,·,-1.2,0.745,0.1

# Quoted at random: two records from the list
SMILES,Vif TR-FRET,FGF22 binding,UCH37 inh,MLL AF4-AF9 inh,RanGTP-Imp inh,Ecoli growth,HNF4A DNA FP
CCOc1ccc(NC(=O)c2cccc(NC3=NC4CS(=O)(=O)CC4S3)c2)cc1 (stereo unspecified),·,i,1.1,-3.8,6.7,0.803,1.3
CCOc1ccc(OCC(=O)NCCS(=O)(=O)N2CCN(c3ccc(F)cc3)CC2)cc1,·,i,2.9,-0.5,-1.1,0.707,-0.9

# The list continues.
SMILES,Vif TR-FRET,FGF22 binding,UCH37 inh,MLL AF4-AF9 inh,RanGTP-Imp inh,Ecoli growth,HNF4A DNA FP
CN(C)c1ccc(/C=N/NC2=NS(=O)(=O)c3ccccc32)cc1,·,i,·,0.2,1.5,·,12.6
NNC(=S)NCc1ccco1,0.9%,i,1.3,-3.6,?,0.683,2.0
COC(=O)c1cccc(Nc2ccc([N+](=O)[O-])cn2)c1,·,i,4.0,-1.8,0.3,0.656,2.1
Clc1cccc(CNc2ccn3nc(-c4ccccc4Cl)cc3n2)c1,·,i,·,-2.5,·,·,-5.9
Cc1csc(SCC(=O)Nc2cc(S(=O)(=O)N3CCCC3)ccc2Cl)n1,24.1%,·,2.0,·,0.5,0.75,-1.1
Cc1noc(C)c1COC(=O)C(c1ccccc1)c1ccccc1,9.2%,i,0.6,-2.4,-4.4,0.671,-2.7
C=CC[C@@H](CC(=O)OC(C)(C)C)C(=O)OC[C@H]1CCCN1C(=O)[C@@H](CC=C)CC(=O)NCCO,·,i,6.0,-4.2,·,·,2.9
COc1ccc(-c2nnc(SCC(=O)NC(C)c3ccccc3)o2)cc1OC (stereo unspecified),1.1%,·,-2.8,·,3.0,0.69,2.8
COc1ccc2[nH]c(=O)c(CN(c3ccc(C)c(C)c3)S(C)(=O)=O)cc2c1,-100.1%,i,-65.9,0.6,-2.1,0.686,-2.0
CC(=O)c1cccc(N(CC(=O)Nc2ccc(F)cc2)S(C)(=O)=O)c1,26.3%,·,2.2,·,-1.2,0.676,0.6
COc1cccc(N2CCN(C(=O)CC(C)(C)CC3=NS(=O)(=O)c4ccccc4N3)CC2)c1,·,i,1.0,2.2,-3.4,0.662,6.2
Cc1cc(C)c(NC(=O)CNC(=O)COC(=O)C2=COCCO2)c(C)c1,3.8%,i,1.8,3.0,1.1,0.644,0.5
Cc1ccc(S(=O)(=O)N2CCN(CC(=O)N/N=C\c3ccc(O)c(O)c3)CC2)cc1,29.5%,i,·,8.8,-3.7,·,-0.9
O=C(NC1CCCCC1)c1cc(S(=O)(=O)N2CCOCC2)ccc1Cl,·,i,1.4,-2.9,0.3,0.654,-1.9
CCOc1ccc(NC(=S)NC(=O)c2cnn(CC)c2)c([N+](=O)[O-])c1,·,i,4.5,2.6,1.7,0.708,-0.9
COc1cccc2cc(-c3cc(=O)oc4ccc(OCC(C)=O)cc34)oc12,·,i,-8.6,-0.9,3.2,0.708,-1.4
COCCCN1C(=O)N(c2ccccc2)C(=O)C1CC(=O)Nc1ccccc1 (stereo unspecified),-2.7%,i,3.8,-17.8,1.1,0.666,0.8
C/C(=N\NC(=O)c1cc(Br)ccc1O)c1cccs1,10.2%,i,·,-4.0,?,·,-0.2
Cc1ccc(S(=O)(=O)n2cnc3cc([N+](=O)[O-])ccc32)cc1C,13.8%,·,5.8,·,7.1,0.67,0.9
O=C(Nc1cccc(-c2nc3ncccc3o2)c1)c1sc2ccccc2c1Cl,-25.7%&-1.0%,·,-14.0,·,-1.5,0.592,43.1*
CC(C#N)(NC(=O)CN1CCN(S(=O)(=O)c2ccccc2C#N)CC1)C1CC1 (stereo unspecified),-9.1%,i,4.4,0.5,·,0.716,-2.1
CC(C)n1nc(C(=O)OCC(=O)N2CC(=O)Nc3ccccc32)c2ccccc2c1=O,-2.3%,·,2.9,-11.4,0.9,0.703,-0.8
CCCOc1ccc(-c2nnc(N)s2)cc1,0.9%,·,1.0,·,-0.7,0.651,2.8
